Insulin prom inh – inhibitors of insulin promoter-driven GFP, primary screen, imaging, TRM-6 cells (human fetal islet line), eGFP reporter, cell count. reporter expression induced with tamoxifen. inhibition, % at 2 µM. 0.9% of 130,000 active. AID 1273, 2008;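 active = inhibition above the mean plus 3 SD, with well images judged a real hit on visual review, cut at about 60% in these data, passing the limit was not always enough; inconclusive = inhibition over the cutoff but images rejected on review; inactive = inhibition not above the cutoff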
PKD1 kinase inh – inhibitors of human PKD1 kinase, biochemical, fluorescence polarization | PKD1 kinase fluorescence polarization assay | 0.056% of 200,000 active | inhibition, %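 (about 10 µM by stock and volumes)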 | Serine/threonine-protein kinase D1 (Homo sapiens), Q15139 | AID 797, 2007;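 active = inhibition of 50% or more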;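 also: controls were vehicle for no effect and a reference inhibitor for full effect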
GALR2 ag – GALR2 receptor agonists, primary screen, cell-based. GALR2-expressing cells, agonist activation read-out. AID 803, 2007. 0.48% of 140,000 active. Galanin receptor type 2 (Homo sapiens), O43603. activation, %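 (tested at 5 µM)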;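 active = above mean plus 3 SD of all compounds, about 5% in these data, not always enough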;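 also: 0% = vehicle buffer wells and 100% = reference agonist at full effect; tested in CHO reporter cells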
Target sequence (O43603 whole entry, looked up): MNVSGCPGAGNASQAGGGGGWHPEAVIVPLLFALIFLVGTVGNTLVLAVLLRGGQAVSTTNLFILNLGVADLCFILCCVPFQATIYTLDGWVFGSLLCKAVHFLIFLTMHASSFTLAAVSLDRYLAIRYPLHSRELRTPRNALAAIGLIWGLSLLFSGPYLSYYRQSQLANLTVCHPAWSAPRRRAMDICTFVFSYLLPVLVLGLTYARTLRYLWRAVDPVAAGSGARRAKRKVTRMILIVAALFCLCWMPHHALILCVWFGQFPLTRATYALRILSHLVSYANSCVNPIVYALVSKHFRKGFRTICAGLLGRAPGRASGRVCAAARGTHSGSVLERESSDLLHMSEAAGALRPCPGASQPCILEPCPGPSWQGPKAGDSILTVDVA
RGS16-Gao HTS – modulators of RGS16 binding to Galphao, primary screen, biochemical, human proteins, multiplexed bead flow cytometry; Regulator of G-protein signaling 16 (Homo sapiens) + Guanine nucleotide-binding protein …; bead-based flow cytometry RGS16-Galphao binding, fluorescence; actives lie on both sides; binding response (% of control), % at 10 µM; 0.38% of 220,000 active;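 active = below 25% or above 175%, edge rows of some plates excepted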;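 also: Galphao activated by GDP with aluminum fluoride before binding; 100% = wells without compound and 0% = beads without RGS; some results beyond the cut were filed as inactive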
Target sequence (O15492 whole entry, looked up): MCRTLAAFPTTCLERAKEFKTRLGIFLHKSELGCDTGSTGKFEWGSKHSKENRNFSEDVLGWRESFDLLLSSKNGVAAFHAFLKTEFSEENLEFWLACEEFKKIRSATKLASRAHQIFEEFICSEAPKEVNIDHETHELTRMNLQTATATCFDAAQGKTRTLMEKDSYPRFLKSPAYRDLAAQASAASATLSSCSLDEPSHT
Target sequence (P09471 whole entry, looked up): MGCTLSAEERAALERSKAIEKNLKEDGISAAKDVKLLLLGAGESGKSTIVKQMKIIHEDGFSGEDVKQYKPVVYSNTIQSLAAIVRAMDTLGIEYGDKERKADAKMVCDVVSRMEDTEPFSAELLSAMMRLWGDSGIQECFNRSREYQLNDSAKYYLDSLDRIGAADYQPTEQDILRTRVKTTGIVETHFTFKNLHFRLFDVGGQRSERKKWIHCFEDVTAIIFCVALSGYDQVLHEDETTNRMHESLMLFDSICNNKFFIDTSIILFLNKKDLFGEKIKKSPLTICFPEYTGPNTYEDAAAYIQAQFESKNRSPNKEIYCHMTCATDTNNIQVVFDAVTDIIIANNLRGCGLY
HSV augment – enhancers of HSV replication in host cells, fold increase, host cell viability; HSV replication augmentation in cells; maximum fold increase; 0.005% of 220,000 active;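 active = peak rise of 1.5-fold or more in the series; inconclusive = self-fluorescent or not available for retest; tested in PC3 cells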;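 also: first round at 10 µM; read as green reporter fluorescence; hits show the peak of a series up to 25 µM; 1 = signal of infected wells without compound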
Insulin prom inh cell count – also measured in Insulin prom inh; calls as there; normalized cell count, %; measured here: cell count, toxicity; reference of the scale not given here;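 cells exposed to compound for 48 h; stained nuclei by imaging scaled within each plate; lower means fewer cells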
HSV augment primary fold – also measured in HSV augment; calls as there; fold increase; compound at 10 µM; measured here: primary screen fold increase 10 uM; tested in PC3 cells;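 GFP signal in the first replicate; 1 = infected wells without compound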
* marks the source's active call; other numbers are inactive results; i = inactive; ? = inconclusive; . = no result given.

SMILES	Insulin prom inh	Insulin prom inh cell count	PKD1 kinase inh	GALR2 ag	RGS16-Gao HTS	HSV augment	HSV augment primary fold
CCC(NC(=O)C1CCC1)c1ccc(C)cc1 (stereo unspecified)	0	71	-3	0.2	102	i	1
O=C(NNC1=C(C(=O)C(F)(F)F)CCC1)c1ccncc1	.	.	-8	.	87	i	0.71
Cc1nnc(SCc2nnc(-c3ccccc3Br)o2)n1-c1ccccc1	-207	41	-3	-2.4	107	i	0.92
CC1CCC(NC(=O)C2CCC(CNS(=O)(=O)c3cccc4nsnc34)CC2)CC1 (stereo unspecified)	.	.	-8	0.9	103	i	0.98
Cn1nc(C(F)(F)F)c(C(=O)Nc2ccc(F)cc2F)c1Sc1ccc(C(F)(F)F)cc1	3	97	-10	-1.8	105	i	0.93
CN(CC(=O)Nc1ccc(N2CCOCC2)cc1)Cc1c(O)ccc2ccccc12	67	105	-5	.	96	i	0.84
COc1ccc(C(=O)N=c2sc3ccccc3n2C)cc1	47	101	0	.	106	i	0.99
COc1ccc(-c2noc(CCC(=O)N(C)c3cccc(C)c3)n2)cc1	-10	89	-4	-2.3	78	i	0.93
CN1CCN(CCNC(=O)Nc2ccc([N+](=O)[O-])cc2)CC1	.	.	-4	.	102	i	1
Cc1cccc(OCCNC(=O)c2ncn[nH]2)c1	40	139	-4	0.5	97	i	0.95
Cc1ccc2[nH]c3c(c2c1)CN(C(=O)CN1CCN(c2ccccn2)CC1)CC3	-19	78	-12	-0.4	105	i	1.1
O=C(Nc1ccccc1)NC1CCCc2ccccc21 (stereo unspecified)	.	.	4	.	100	i	0.94
Cn1cccc1CC(=O)NNC(=S)NC(=O)c1ccc(F)cc1	.	.	.	.	103	i	1
C#CCOCCOCCOCCNc1nc(N2CCN(C(=O)[C@H]([C@@H](C)CC)n3cc([C@@H](N)Cc4ccc(O)cc4)nn3)CC2)nc(N2CCN(C(=O)[C@H](CCCCN)n3cc([C@@H](N)CC(C)C)nn3)CC2)n1	.	.	0	.	105	.	.
CCC(=O)N1CCN(c2ccnc3cc(Cl)ccc23)CC1	.	.	.	.	95	i	0.98
O=C(CSc1nnc(Cc2ccccc2)o1)NCCc1ccccc1	41	96	2	-2.4	100	i	0.92
O=C(N1CCOCC1)N1CCN(c2ccccc2)CC1	-51	275	-10	-2.4	104	i	0.9
Clc1cccc(-c2nc(NCCCN3CCOCC3)c3ccccc3n2)c1	.	.	-4	.	109	i	0.85
CCC(=O)N1CCN(c2ccc(NC(=O)COc3ccccc3Cl)cc2)CC1	43	141	-9	0.5	105	i	1.2
Cc1cc2oc(=O)cc(CN3CCN(Cc4ccccc4)CC3)c2cc1Cl	.	.	-3	-1.2	101	i	1.1
COc1ccc(S(=O)(=O)Nc2cccc(N(C)S(C)(=O)=O)c2)cc1Br	.	.	1	0.3	104	i	1.1
CCOCCn1c(CN2CCC(Cc3ccccc3)CC2)nc2c1c(=O)n(C)c(=O)n2C	41	89	-6	-1.2	.	i	1
CCCc1nc2ccccc2n1CCOC	.	.	1	-2.2	108	i	1.1
Cc1ccccc1CSCC(=O)Nc1c(C)n(C)n(-c2ccccc2)c1=O	22	46	-2	-2.7	126	i	0.88
N/C(=N\OC(=O)CCc1ccccc1)c1ccc(Cl)cc1	-126	116	-7	-3.2	99	i	0.97
Oc1ccc(Cl)cc1C1=NNC(c2cc(Br)cc3c2OCOC3)C1 (stereo unspecified)	50	151	-3	.	98	i	0.97
Cc1nn(Cc2ccccc2Cl)c2sc(C(=O)Nc3ccccc3N3CCOCC3)cc12	.	.	4	2.1	105	i	0.74
Cc1cccc(NC(=S)NC2CC3CCC(C2)N3Cc2ccco2)c1C (stereo unspecified)	.	.	2	0.1	146	i	0.84
COc1ccc(C)cc1NC(=O)c1[nH]c(C)c(C(C)=O)c1C	-23	193	6	-1.2	85	i	0.94
Cc1cc(C(=O)OCc2nc3ccccc3s2)c(C)o1	13	139	5	-3.1	98	.	.
CCOC(=O)C1CCCN(C(=O)Nc2cccc(Cl)c2)C1 (stereo unspecified)	-30	87	4	0.7	98	i	0.83
CCCn1nc(C(=O)Oc2ccc3c(C)cc(=O)oc3c2)c2ccccc2c1=O	37	109	12	-0.6	96	i	0.99
Cc1cc(C)nc(N(C#N)CCOc2ccccc2)n1	50	139	1	-2.0	84	i	0.95
Cc1c(Cc2c(C)n(C)n(-c3ccccc3)c2=O)c(=O)n(-c2ccccc2)n1C	-6	55	6	-0.9	103	i	1.1
CCOC(=O)CNC(=O)c1ccc2[nH]c3c(c2c1)CCCC3	-79	52	-9	-0.7	99	i	1
Cc1ccc(S(=O)(=O)NCCNC(=O)c2ccccc2)cc1	.	.	-6	-1.1	102	i	1
CCOc1ccccc1OCCCCOc1ccccc1F	-10	106	-11	0.1	58	i	1.1
CCN(CC)CCNC(=O)c1ccc(NC(=O)/C=C/c2cc(OC)c(OC)c(OC)c2)cc1	.	.	-1	.	101	i	0.78
CCOC(=O)C1=Nc2ccccc2C1=[N+]=[N-]	.	.	7	-1.2	103	i	0.68
O=C1c2ccccc2C(=O)N1CCn1c(=O)oc2ccccc21	38	76	-6	-1.3	99	i	0.92
O=C(Nc1nnc(-c2ccc(Cl)cc2)o1)C1CCCCC1	.	.	.	.	97	i	0.93
COC(=O)c1c(NC(=O)c2ccccc2)sc2c1CC(C)(C)OC2	-3	128	1	-0.4	96	i	0.88
Cc1ccc(Nc2c3c(nc4ccccc24)CCC3)cc1	.	.	.	.	103	i	0.91
Cn1c2c(c(=O)n(C)c1=O)C(C(F)(F)F)(C(F)(F)F)N=C(c1ccccc1Cl)N2	22	107	-2	-1.3	99	i	0.85
CCCSc1nn2c(=O)c3ccccc3nc2s1	-8	114	0	-3.6	104	i	0.91
CCOc1ccc(-c2nnc3sc(-c4c(OC)cccc4OC)nn23)cc1	10	106	12	-1.7	.	.	.
COc1ccc(C(=O)Nc2c(Cl)cc(Cl)cc2C(=O)NCCN2CCOCC2)cc1	-38	126	-5	-1.5	106	i	1.1
Cc1c(N2C(=O)c3ccc(F)cc3C2=O)c(=O)n(-c2ccccc2)n1C	.	.	-4	-2.4	104	i	0.89

In the list so far, 3 contain two or more sulfur atoms:
SMILES	Insulin prom inh	Insulin prom inh cell count	PKD1 kinase inh	GALR2 ag	RGS16-Gao HTS	HSV augment	HSV augment primary fold
CC1CCC(NC(=O)C2CCC(CNS(=O)(=O)c3cccc4nsnc34)CC2)CC1 (stereo unspecified)	.	.	-8	0.9	103	i	0.98
COc1ccc(S(=O)(=O)Nc2cccc(N(C)S(C)(=O)=O)c2)cc1Br	.	.	1	0.3	104	i	1.1
CCCSc1nn2c(=O)c3ccccc3nc2s1	-8	114	0	-3.6	104	i	0.91

(listing goes on)
SMILES	Insulin prom inh	Insulin prom inh cell count	PKD1 kinase inh	GALR2 ag	RGS16-Gao HTS	HSV augment	HSV augment primary fold
CCOCC(=O)N1CCN(c2cccc(Cl)c2)CC1	.	.	-5	.	100	i	0.93
O=C(CSc1nnc(C2CC2)n1-c1ccccc1)NCCc1ccc(F)cc1	-17	184	-5	-0.7	103	i	0.85
Cn1cc(CCNC(=O)CCc2nnc(CCCCc3ccccc3)o2)cn1	.	.	1	.	106	i	0.98
COc1ccc(C(=O)Nc2ccc(S(=O)(=O)NC(C)C)cc2)cc1	18	45	9	-1.0	106	i	0.94
O=C(Cn1nnc(-c2ccc(CN3CCOCC3)cc2)n1)N1CCCc2ccccc21	-257	1	-10	0.2	95	i	0.75
O=C(C1CCCN(S(=O)(=O)c2cccc3nsnc23)C1)N1CCc2ccccc21 (stereo unspecified)	.	.	-3	-4.5	103	.	.
CCOC(=O)C1(CCc2ccccc2)CCN(C(=O)c2occc2C)CC1	.	.	-6	.	99	i	1.1
Cc1c(C(c2cccc(O)c2)c2c(C)n(C)n(-c3ccccc3)c2=O)c(=O)n(-c2ccccc2)n1C	-31	105	-4	-0.1	108	i	1.1
CCCCN(CC)C(=O)c1cc2cc3ccc(OC)cc3nc2o1	28	112	-9	-0.3	102	i	0.8
Cc1ccc(C(=O)NCCc2csc(-c3cccnc3)n2)cc1	.	.	2	-2.0	102	i	1
S=c1[nH]nc(Cc2noc3ccccc23)n1-c1ccc(Cl)cc1	.	.	-2	.	100	i	0.95
Cc1cc(C)nc(NS(=O)(=O)c2ccc(NC(=O)CSc3nc(-c4ccccc4)c(C#N)c(=O)[nH]3)cc2)n1	45	79	-1	.	99	i	1.1

Among those listed so far, these have a cyano group:
SMILES	Insulin prom inh	Insulin prom inh cell count	PKD1 kinase inh	GALR2 ag	RGS16-Gao HTS	HSV augment	HSV augment primary fold
Cc1cc(C)nc(N(C#N)CCOc2ccccc2)n1	50	139	1	-2.0	84	i	0.95
Cc1cc(C)nc(NS(=O)(=O)c2ccc(NC(=O)CSc3nc(-c4ccccc4)c(C#N)c(=O)[nH]3)cc2)n1	45	79	-1	.	99	i	1.1

Additional structures follow.
SMILES	Insulin prom inh	Insulin prom inh cell count	PKD1 kinase inh	GALR2 ag	RGS16-Gao HTS	HSV augment	HSV augment primary fold
O=C(NCC(=O)N(c1cccnc1)C(C(=O)NC1CCCC1)c1ccc(F)cc1)c1ccco1 (stereo unspecified)	.	.	2	.	107	i	1.1
COC(=O)[C@H](CCSC)NC(=O)c1cccnc1SC	.	.	.	.	94	i	1.1
O=C(CCC(=O)c1ccccc1)NCc1ccccc1	.	.	.	.	101	i	0.98
FC(F)Oc1ccccc1NC(=S)NCc1ccco1	35	128	-2	-0.7	52	i	0.94
O=C(C[n+]1cn(C(F)F)c2ccccc21)c1ccc(Br)cc1	.	.	0	.	91	i	0.94
COCCNC(=O)c1ccccc1NC(=O)CCSc1ccccc1	-68	88	-7	.	99	i	0.98
Cc1ccc(-n2c(=O)cc(NCc3cccnc3)[nH]c2=O)cc1	18	108	6	-2.0	100	i	1.1
COc1cc(C)nc(Oc2ccc(=O)[nH]n2)n1	39	95	1	-2.2	94	i	0.95
Cc1cc(C)cc(NC(=O)N2CCN(C/C=C/c3ccccc3)CC2)c1	.	.	0	.	102	i	0.91
O=C(c1ccc2ccccc2c1)C1CCCN(S(=O)(=O)c2cccnc2)C1 (stereo unspecified)	.	.	6	.	112	i	0.96
CCOC(=O)c1c(C)n(-c2ccc(C)cc2)c2ccc(OCC(O)CNCCCO)cc12 (stereo unspecified)	.	.	1	.	106	i	0.57
O=C(OCC(=O)c1ccc(S(=O)(=O)N2CCCC2)cc1)C1=COCCO1	-92	97	-17	-0.7	101	i	1
CCOc1ccc(N=C(/C(C(=O)C(=O)N2CCOCC2)=C(\O)c2ccccc2)c2ccccc2)cc1	-8	120	10	-0.7	112	.	.
COc1cccc(OC)c1OCCN1CCN(C(=O)c2ccco2)CC1	52	87	-6	0.4	101	i	0.75
OCCCc1nc2ccccc2n1CCc1ccccc1	42	106	-8	-0.5	100	i	0.95
OCCCc1nc2n(n1)C(c1cccs1)C=C(c1ccccc1)N2 (stereo unspecified)	.	.	3	0.4	101	?	.
CCOC(=O)c1c(C)oc2c1c(C=NCC1CCCO1)c(O)c1ccccc12 (stereo unspecified)	0	86	-1	-2.7	105	.	.
CCOC(=O)Cn1c(=N)n(CCOc2ccc(Br)cc2)c2ccccc21	.	.	.	.	102	i	0.9
CC(Oc1ccccc1F)C(=O)Nc1ccc2ccccc2c1 (stereo unspecified)	44	104	-9	-1.8	49	i	0.95
CCCCOC(=O)C(C)Oc1ccc(=O)n(-c2ccccc2)n1 (stereo unspecified)	.	.	5	-1.4	100	i	0.75
Cc1ccc(N2CC(=O)N(CC(=O)O)C2=O)cc1	.	.	-3	.	103	i	1
O=C1CC(c2ccccc2)CCc2sccc2N1 (stereo unspecified)	-3	139	0	-1.0	73	i	0.74
O=C(c1ccc([N+](=O)[O-])cc1Cl)N1CCN(c2ccccn2)CC1	.	.	.	.	101	i	0.9
CCOC(=O)CCCNC(=O)COc1ccccc1C#N	.	.	-9	-0.9	90	i	0.74
O=C(OCc1ccc2c(c1)OCO2)c1ccc(S(=O)(=O)N2CCCC2)cc1	54	116	-5	-0.8	101	i	0.92
COc1ccc(OCCCC(=O)Nc2ccc(N3CCOCC3)cc2)cc1	-10	156	0	.	107	i	0.86
COc1ccc2oc(=O)c(/C(C)=N/NC(=O)c3ccncc3)cc2c1	.	.	-7	-0.8	103	i	1.1
N#Cc1c(-c2ccccc2)cc(-c2ccco2)c(C#N)c1N	-32	76	-8	9.6	91	.	.
COCC(C)NCc1cccc([N+](=O)[O-])c1 (stereo unspecified)	.	.	12	-3.8	97	i	1
O=C(Nc1cccc(C(=O)N2CCN(c3cccc(Cl)c3)CC2)c1)c1ccccc1	15	114	9	.	107	i	0.98
O=C(Nc1nnc(C2=COCCO2)o1)c1ccc(S(=O)(=O)N2CCCC2)cc1	36	114	-5	.	100	i	0.98
